VACV mCherry inh = qHTS for Stage-Specific Inhibitors of Vaccinia Orthopoxvirus: mCherry Reporter Primary qHTS | Vaccinia virus mCherry reporter infection, fluorescence; about a quarter of the inactives have no number | Potency, µM (top dose mostly 36.5 µM), for the others: at the highest dose activity change, negative = inhibition, most hits filed as inhibitors | 310,000 tested, 0.63% active; active = well fitted inhibition curve with a large enough effect; inconclusive = small, poorly fitted or top-dose-only effect; inactive = no such curve, though single readings can be large or run the other way; tested in A549 cells; further: nearly all actives have a fitted effect of over 35% in size; inactives centre near -10
VACV Venus inh = qHTS for Stage-Specific Inhibitors of Vaccinia Orthopoxvirus: Venus Reporter Primary qHTS. Potency, µM (titrated, usually from 36.5 µM), for inactives: at the highest dose activity change, negative = inhibition, hits mostly inhibitors. Vaccinia virus Venus reporter expression, fluorescence. 330,000 tested, 0.46% active; active means well fitted inhibition curve with a large enough effect; inconclusive means small, poorly fitted or top-dose-only effect; inactive means no such curve, though single readings can be large or run the other way; tested in A549 cells; further: nearly all actives have a fitted effect of over 30% in size; inactives centre near -10
* = called active by the depositor; i = inactive; ? = inconclusive; nt = no result given; [ ] = remark or other dose. On the % scale 0 is the no-effect control and ±100 the full control effect; potency means the concentration at half of the fitted maximal effect. This is a random part of the collection. Share with any hit: about 0.87%.

SMILES	VACV mCherry inh	VACV Venus inh
COc1ccc(C(=O)NCCc2nnc3ccc(SCC(=O)Nc4ccccc4)nn23)cc1	-2%	-14%
COc1cc(/C=C2/SC(=Nc3ccc(O)cc3)NC2=O)cc(OC)c1O	i	107%[activator]
COc1ccc(C(=O)N/C(=C\c2ccc(Cl)cc2)C(=O)NCc2ccncc2)cc1	i	-14%
CC(C)(C)OC(=O)N1CCC(c2c(C(=O)NC3CCN(Cc4ccccc4)CC3)cnn2-c2ccc(F)cc2F)CC1	-28%	-25%
CCCCCc1ccc(OCCOCCn2c[n+](C)c3ccccc32)c(CCCCC)c1	16µM*	11µM*
COC(=O)Cc1csc(NC(=O)CSc2nncn2C)n1	-7%	10%
O=c1cc(N2CCN(c3cccc(Cl)c3)CC2)[nH]c(=O)n1C1CCCCC1	nt	?
CCn1c2ccccc2c2cc(NC(=O)COC(=O)C3CCC(=O)N3)ccc21 (stereo not drawn)	nt	?
Cc1cc2nc(-c3ccco3)cc(C(F)(F)F)n2n1	i	-6%
CCOC(=O)C1(Cc2ccccc2)CCN(Cc2ccc3c(c2)OCCO3)CC1	-9%	-11%
CCOC(=O)C(=O)Nc1cc(C(=O)OC)cc(C(=O)OC)c1	i	-11%
Cn1c(N)c(C(=O)COC(=O)c2ccco2)c(=O)n(C)c1=O	i	-3%
Cc1ccc2cc(COC(=O)c3ccco3)c(=O)[nH]c2c1	nt	-7%
CC(C)c1ccc(NC(=O)Cn2cc(S(=O)(=O)Cc3ccccc3Cl)c3ccccc32)cc1	?	-30%
CNc1cc(-c2cccc(OC)c2F)nc2ccnn12	-1%	?
CC(C)NC(=O)COC(=O)/C=C/c1ccco1	-13%	-11%
Cc1sc(-n2c(C)cc(C=C3C(=O)NC(=O)NC3=O)c2C)c(C#N)c1C	i	2%
COc1ccc(CCNC(=O)c2cnc3sc(N4CCC(C)CC4)nn3c2=O)cc1OC	-4%	-19%
CCc1ccccc1NS(=O)(=O)c1ccc(-c2coc(C)n2)cc1	-1%	-5%
COC(=O)C(CCSC)NS(=O)(=O)c1ccc(Cl)cc1 (stereo not drawn)	-2%	-11%
COc1ccc(N2CCN(CCCNC(=O)C(=O)c3c(C)[nH]c4ccccc34)CC2)cc1	-12%	-13%
O=C(COC(=O)c1cc(=O)[nH]c2ccccc12)Nc1ccc(F)cc1F	-14%	-10%
COCCNC(=O)c1ccccc1N(Cc1ccccc1)S(=O)(=O)c1ccc(C)cc1	-1%	-5%
CCN1C(=O)[C@H]2[C@@H](c3ccc(-c4ccc(Cl)c(Cl)c4)cc3)N[C@@](Cc3ccccc3)(C(=O)OC)[C@H]2C1=O	i	-27%
COc1ccc(-c2ccn(-c3cccc(F)n3)n2)cc1	-27%	-21%
O=C(CCN1CCN(CCO)CC1)Nc1ccc(C2CCCC2)cc1	?	-13%
CCSc1nc2c(c(=O)[nH]c(=O)n2C)n1Cc1ccc(Cl)cc1	nt	-3%
COc1ccc(/C=N/NC(=O)c2cccc(NC(=O)c3ccc(Cl)cc3)c2)c(OC)c1	i	-15%
Cc1cc(Nc2ccc(C)c(C)c2)n2cnnc2n1	-11%	-5%
COc1cccc(C(=O)N2C[C@H]3C[C@@H](C2)c2cccc(=O)n2C3)c1	-3%	-2%
COc1ccc(S(=O)(=O)C(C#N)c2nc3ccccc3nc2N2CCCCC2)cc1 (stereo not drawn)	nt	7%
CNc1nc(SCc2ccccc2)nc(N2CCOCC2)n1	-6%	-10%
CC1CCN(CC(=O)N2c3ccccc3CC2C)CC1 (stereo not drawn)	-1%	-9%
CC1CCCC(n2c(=S)[nH]c3ccccc3c2=O)C1C (stereo not drawn)	-13%	-17%
Cc1noc(C)c1NC(=O)N(C)C[C@H]1Oc2ccc(NC(=O)Nc3ccccc3)cc2C(=O)N([C@H](C)CO)C[C@@H]1C	i	0%
CCN(CC)S(=O)(=O)c1cc(NC(=O)CCNC(=O)c2ccco2)ccc1C	-16%	-7%
O=C(Cc1cccc([N+](=O)[O-])c1)Nc1cccc(C(=O)N2CCCC2)c1	?	-16%
COc1ccc(C2C(C(C)=O)=C(Nc3ccccc3)CC(C)(O)C2C(C)=O)cc1OC (stereo not drawn)	-24%	-11%
C/C(=N\Nc1ccccc1[N+](=O)[O-])c1ccccc1O	?	1%
O=c1cc(-c2ccccc2)n2c(SCc3ccc([N+](=O)[O-])cc3)nnc2[nH]1	?	-13%

Brought forward from above: 2 entries; new compounds follow.
SMILES	VACV mCherry inh	VACV Venus inh
C/C(=N\Nc1ccccc1[N+](=O)[O-])c1ccccc1O	?	1%
O=c1cc(-c2ccccc2)n2c(SCc3ccc([N+](=O)[O-])cc3)nnc2[nH]1	?	-13%
C/C(Cl)=C/Cn1c(SC(C)C)nc2c1c(=O)[nH]c(=O)n2C	nt	-14%
CCOc1ccc(S(=O)(=O)c2cn(C)c3cc(OC)c(OC)cc3c2=O)cc1	i[7.34 µM]	0%[7.34 µM]
Cc1ccc2c(c1)c(=O)c1ccccc1n2CCCC(=O)Nc1ccc(Cl)cc1C	-8%	-6%
Cc1nnc(SCC(=O)NCC(=O)Nc2ccc(F)c(F)c2F)n1Cc1ccccc1	i	-5%
COCCCNC(=O)CN1C(=O)COc2ccc(S(=O)(=O)N3CC(C)CC(C)C3)cc21 (stereo not drawn)	?	-29%
CS(=O)(=O)c1ccc(C(=O)N2CCN(S(=O)(=O)c3ccc(C4CCCCC4)cc3)CC2)cc1	-15%	-12%
COc1ccc(-n2cc(C(=O)OCc3ccc(F)c(F)c3)c3ccccc3c2=O)cc1	-26%	-25%
O=C(CC(c1ccccc1)c1ccccc1O)NCc1ccco1 (stereo not drawn)	-13%[1.46 µM]	-22%
CC(=O)c1ccc(NC(=O)NNS(=O)(=O)c2ccc(F)cc2)cc1	-19%	-9%
CNC(=O)COC(=O)c1[nH]c(C)c(C(C)=O)c1C	-12%	-6%
O=C(CSc1nc(-c2ccc(F)cc2)[nH]c1-c1ccccc1)NCC1CCCO1 (stereo not drawn)	-14%	-10%
O=C1NC(=Nc2ccc(F)cc2)CS1	7%	0%
O=C(CN1C(=O)CCS(=O)(=O)c2ccccc21)NCc1ccccc1	-26%	-17%
Cc1ccc(S(=O)(=O)NCC(=O)N(CC(=O)NCC2CCCO2)C2CCCC2)cc1 (stereo not drawn)	i	-14%
COC(=O)C1=C(N)OC2=C(C(=O)CCC2)C1c1cccnc1 (stereo not drawn)	i	-26%
Cc1ccc(C(=O)N2CCCC(C(=O)Nc3cccc(-c4ccc(F)cc4)c3)C2)cn1 (stereo not drawn)	-13%	-30%
Cc1ccc(COC(=O)c2[nH]c3c(c2C)C(=O)CC(c2ccc(N(C)C)cc2)C3)cc1 (stereo not drawn)	-8%	-4%
O=C(CCNS(=O)(=O)c1ccc2c(c1)CCN2C(=O)C1CC1)N1CCN(c2ccccc2F)CC1	-21%	-6%
CCOC(=O)CN1C(=O)C(O)(CC(=O)c2ccco2)c2ccccc21 (stereo not drawn)	nt	-9%
COc1ccc(C(=O)NC(Cc2ccc(OC(=O)c3ccc(OC)cc3)cc2)C(=O)O)cc1 (stereo not drawn)	i	-3%

Sorted by molecular weight (lowest first): 14 of the compounds above
SMILES	VACV mCherry inh	VACV Venus inh
O=C1NC(=Nc2ccc(F)cc2)CS1	7%	0%
CNC(=O)COC(=O)c1[nH]c(C)c(C(C)=O)c1C	-12%	-6%
COC(=O)C1=C(N)OC2=C(C(=O)CCC2)C1c1cccnc1 (stereo not drawn)	i	-26%
O=C(CC(c1ccccc1)c1ccccc1O)NCc1ccco1 (stereo not drawn)	-13%[1.46 µM]	-22%
CCOC(=O)CN1C(=O)C(O)(CC(=O)c2ccco2)c2ccccc21 (stereo not drawn)	nt	-9%
CC(=O)c1ccc(NC(=O)NNS(=O)(=O)c2ccc(F)cc2)cc1	-19%	-9%
O=C(CN1C(=O)CCS(=O)(=O)c2ccccc21)NCc1ccccc1	-26%	-17%
Cc1ccc(C(=O)N2CCCC(C(=O)Nc3cccc(-c4ccc(F)cc4)c3)C2)cn1 (stereo not drawn)	-13%	-30%
COc1ccc(-n2cc(C(=O)OCc3ccc(F)c(F)c3)c3ccccc3c2=O)cc1	-26%	-25%
Cc1ccc(S(=O)(=O)NCC(=O)N(CC(=O)NCC2CCCO2)C2CCCC2)cc1 (stereo not drawn)	i	-14%
COc1ccc(C(=O)NC(Cc2ccc(OC(=O)c3ccc(OC)cc3)cc2)C(=O)O)cc1 (stereo not drawn)	i	-3%
COCCCNC(=O)CN1C(=O)COc2ccc(S(=O)(=O)N3CC(C)CC(C)C3)cc21 (stereo not drawn)	?	-29%
CS(=O)(=O)c1ccc(C(=O)N2CCN(S(=O)(=O)c3ccc(C4CCCCC4)cc3)CC2)cc1	-15%	-12%
O=C(CCNS(=O)(=O)c1ccc2c(c1)CCN2C(=O)C1CC1)N1CCN(c2ccccc2F)CC1	-21%	-6%

Additional records:
SMILES	VACV mCherry inh	VACV Venus inh
CCCCN(C(=O)c1ccc(S(=O)(=O)N2CCCCC2)cc1)C1CCS(=O)(=O)C1 (stereo not drawn)	-15%	-26%
CC1CCCN(C(=O)COC(=O)Cn2cnc3ccccc32)C1 (stereo not drawn)	i	-11%
Cc1ccc(C(=O)NCc2ccc3c(c2)OCO3)c(C)c1	i	-7%
COc1cc(OC)c(NC(=O)Nc2cccc(OCc3cc(=O)n4ccccc4n3)c2)cc1Cl	?	?
Cc1cc(C)c2cc(CN(CCCN(C)C)C(=S)NCc3ccccc3)c(=O)[nH]c2c1	-8%	-18%
O=S(=O)(CCc1nc2ccccc2s1)c1ccc2ccccc2c1	nt	-6%
COc1ccc(C(=O)NCc2nnc(SCC(=O)Nc3nc4ccccc4s3)o2)cc1	-14%	-6%
CC(=O)N1CCN(C(=O)CNC(=O)c2ccc(Br)o2)CC1	-11%	3%
O=C(CN1C(=O)NC2(CCOc3ccccc32)C1=O)NCc1ccccc1 (stereo not drawn)	-14%	-13%
COc1cccc2cc(C(=O)Oc3ccc(NC(C)=O)cc3)c(=O)oc12	-8%	-8%
CC1=Nc2ccccc2/C1=C/c1nc(-c2ccc(C)s2)oc1O	i	4%
CCCCc1nc2cc(Cl)ccc2o1	-11%	-21%
COc1ccc(S(=O)(=O)N[C@@H]2C=C[C@@H](CC(=O)N3CCc4ccccc4C3)O[C@@H]2CO)cc1	i	-16%
O=C(Cn1c(=O)c2sccc2n(Cc2cccc([N+](=O)[O-])c2)c1=O)NCCc1ccccc1	i	0%
Cc1ccc(C)c(NC(=O)c2cc(S(=O)(=O)N3CCN(c4cccc(Cl)c4)CC3)ccc2F)c1	-18%	-19%
Cc1cc(C)c(C#N)c(SC2CCCCC2=O)n1 (stereo not drawn)	-9%	-6%
COc1ccccc1Nc1nc2ccccc2[nH]1	nt	?
COc1cc(OC)cc(-c2c(Sc3ccccc3)c3cc(-c4cnc(OC)nc4)ccc3n2C)c1	-6%	-10%
CCc1nnc(NC(=O)c2cc(-c3ccccn3)nc3ccccc23)s1	i	-3%
COC(=O)/C(C)=C\CC12OC(C)(C)C3CC(C=C4C(=O)c5c(OC)c6c(c(CC=C(C)C)c5OC431)OC(C)(CCC=C(C)C)C=C6)C2=O (stereo not drawn)	13µM*	?
CC(C)(C)OC(=O)N1CCC[C@H]1C(=O)N1CCC[C@H]1C(=O)NCc1ccncc1	-7%	2%
CCN(CC)c1ccc(NC(=O)Nc2ccccc2)cc1	-21%	-17%
Cc1ccc(CN(Cc2ccccc2)C(=S)NCC(=O)N2CCC3(CC2)OCCO3)o1	i	-10%
CCOC(=O)c1c(C)[nH]c(C(=O)COC(=O)CCS(=O)(=O)c2ccc(C)cc2)c1C	i	-9%
COc1ccc(OCC(=O)Nn2c(-c3ccc(OC)cc3)nc3ccccc3c2=O)cc1	-12%	-7%
COC(OC)c1ccc(C#N)c(SCc2ccc(C)cc2)n1	-10%	-10%
CC(=O)Nc1ccc(-c2cc(C(=O)O)c3ccc(C)cc3n2)cc1	-1%	-20%
C=CCN1C(=O)NC(c2ccc(OC)cc2)(C(F)(F)F)S/C1=C(\C#N)c1nnc(N2CCOCC2)n1-c1ccccc1 (stereo not drawn)	i	-6%
COCCn1c(SCC(=O)c2ccccc2)nc2c(c1=O)SC(C)C2 (stereo not drawn)	-21%	-6%
COc1ccc(S(=O)(=O)N2CCOC2CNC(=O)C(=O)NCc2ccco2)cc1C (stereo not drawn)	i	-5%
CS(=O)(=O)N1Cc2cc(C(=O)NCC3CCCCC3)nc(-c3cccc(-c4cccnc4)c3)c2[C@H]1CCO	-27%	-16%
CNc1ncnc2c1cnn2C1CCCCO1 (stereo not drawn)	-9%	-3%
O=C(NCCCN1CCOCC1)NC12CC3CC(CC(C3)C1)C2	nt	-26%
Cc1ccc(-c2nc(CS(=O)CC(=O)N3CCN(c4ccccc4)CC3)c(C)o2)cc1 (stereo not drawn)	?	?
Cc1cc(C)c(OCC(=O)OCC(=O)NC2CCC(C)CC2)c(C)c1 (stereo not drawn)	i	-8%
COc1ccc(C(=O)O/N=C(\C)c2ccccc2)cc1	-8%	-14%
Cc1[nH][nH]c(=O)c1C(c1ccc(Cl)cc1)c1c(C)[nH][nH]c1=O	-14%	-4%
O=C(N/N=C/c1ccccc1Br)C1CC1	-19%	4%
Cc1ccccc1OCC(=O)Nc1ccc(N2CCN(C)CC2)c(Cl)c1	-13%	-1%
Fc1ccccc1N1CCN(c2c3c(nc4nncn24)CCC3)CC1	-11%	-8%

High-throughput results: PubChem BioAssay, National Center for Advancing Translational Sciences (NCATS)
